# HCMV NEC inh: cytomegalovirus nuclear egress complex inhibition. hit rate 0.15% among 190,000. AID 1918969. HTRF UL50-UL53 interaction, normalized percent inhibition. inhibition, % (test concentration not listed);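 active means both replicates at 50% or more, plus weaker picks with an unusually low signal ratio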;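 further: stock transfer was 100 nL into about 20 µL; 0% = negative control wells and 100% = wells with untagged competitor protein; inactives centre near -12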
# Sa growth inh: S. aureus growth inhibition; relative growth, % (no concentration beside the values); hit rate 0.53% among 170,000; AID 720641; S. aureus RN4220 growth, OD600, 20 h, 42 °C; hits give low values;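 active means growth at 42 °C up to 50% and 20 or more points under that at 30 °C, or under 10% at both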;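 further: 300 nL library stock went into each well; scaled to the means of positive and negative controls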
# GIV-Gai inh: blocks GIV peptide binding to rat Galpha-i3; Galpha-i3/FITC-GIV peptide fluorescence polarization, 90 min; hits give low values; scaled: aluminum fluoride 0%, vehicle 100%; P08753; percent of control (FP), % (no concentration beside the values); hit rate 0.42% among 210,000;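 active means replicate mean at 85% of control or lower, very high polarization wells dropped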;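 further: wells of about 15 µL received 100 nL stock; the first replicate is given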
# Target sequence (P08753 whole entry, looked up): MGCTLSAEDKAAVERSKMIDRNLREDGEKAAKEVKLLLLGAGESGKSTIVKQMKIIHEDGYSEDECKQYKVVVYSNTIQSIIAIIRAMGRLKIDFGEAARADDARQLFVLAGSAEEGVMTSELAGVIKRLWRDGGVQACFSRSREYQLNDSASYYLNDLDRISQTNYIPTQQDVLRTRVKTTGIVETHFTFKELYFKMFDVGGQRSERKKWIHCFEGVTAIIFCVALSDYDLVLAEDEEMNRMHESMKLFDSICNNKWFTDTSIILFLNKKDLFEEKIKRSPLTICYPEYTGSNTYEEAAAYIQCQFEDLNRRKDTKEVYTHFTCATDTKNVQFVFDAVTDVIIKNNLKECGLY
# Sa growth inh second temp: second read-out of Sa growth inh, no call of its own (marks repeat the call); relative growth, %; measured here: growth at 30 °C;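 optical density after 20 h as mean of two plates; 100% = untreated growth and lower means inhibition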
# An asterisk follows results filed as active; · = no result given; & = joins results of further samples.
SMILES,HCMV NEC inh,Sa growth inh,Sa growth inh second temp,GIV-Gai inh
COc1ccc(NC(=O)Cn2c(=O)n(Cc3nc(C)no3)c(=O)c3cc4c(cc32)OCO4)cc1OC,·,102,93,108
O=C(NCC(F)(F)C(F)F)c1ccncc1,-5,85,97,103
Cc1cc2cc(CCNS(=O)(=O)c3ccccc3)c(=O)[nH]c2cc1C,-6,92,90,106
CC(C)CN(CC(C)C)C(=O)CSc1nnc(-c2cccc(Cl)c2)n1N,-7,95,89,·
Cc1cc(C)n(CCCNC(=O)Cn2cnc3ccccc3c2=O)n1,-7,102,99,·
Cc1ccc(S(=O)(=O)N2CCN(S(=O)(=O)N(C)C)CC2)cc1,·,86,98,101
CC(C)NC(=O)c1cccnc1Nc1cccc(C(F)(F)F)c1,11,86,96,·
O=C(C1CCN(Cc2cnn(-c3ccccc3)c2-n2cccc2)CC1)N1CCN(c2ccccc2)CC1,-1&6,109,82,107&96
Cc1cccc(N2CCN(C(=O)c3ccc4c(c3)c(C)c(C)n4C)CC2)c1C,·,98,92,106
O=C(Nc1cccc(C(F)(F)F)c1)c1cc2nc(-c3ccccc3)cc(C(F)(F)F)n2n1,-28,98,90,105
CCCc1[nH]n(-c2nc3ccccc3s2)c(=O)c1C(C)=Nc1cccc(F)c1,-29,·,·,108
CCc1nc(-c2ccc3c(c2)CCN3C(=O)Cc2ccccc2Br)no1,-8,·,·,108
Cn1c(=S)[nH]c2c(c1=O)C1(CCCC1)Cc1ccccc1-2,-4,111,93,104
COc1ccccc1Nc1nc(Nc2ccccc2OC)nc(N2CCOCC2)n1,-11,·,·,104
Cc1ccc(C(=O)Nc2cccc(C(=O)OCc3cc(=O)n4nc(C5CC5)sc4n3)c2)cc1,·,85,89,104
CCc1ccc(-n2nc3ccc(NC(=O)c4ccccc4Br)cc3n2)cc1,·,94,97,102
OCCN1CCN(CCc2ccccc2)CC1,-12,106,75,106
COc1ccc(Cl)cc1NC(=O)CN1c2ccccc2S(=O)(=O)c2ccccc21,·,108,87,98
COc1ccc(-c2nc(CNS(=O)(=O)c3cccc(F)c3)cs2)cc1,-19,98,87,100
N#CC(C#N)=Cc1cccn1S(=O)(=O)c1ccc(F)cc1F,-40,88,77,161
CSc1sc(=S)sc1SCCC#N,-69,89,80,106
Cc1cc2c(cc1NC(=O)CCc1ccccc1)n(C)c(=O)n2C,-8,101,90,106
COC(=O)Cc1nnc(Nc2cccc(C)c2)c2ccccc12,-22,·,·,97
COc1cc(OC)c2c(C)c(CC(=O)NCCc3ccccc3OC)c(=O)oc2c1,-37,91,86,100
COc1ccc(OC)c(-c2cc(C(=O)Nc3c(C)nn(Cc4ccc(C)cc4)c3C)no2)c1,-10,103,96,105
# The results go on:
SMILES,HCMV NEC inh,Sa growth inh,Sa growth inh second temp,GIV-Gai inh
Cc1ccn2cc(-c3cccc(NC(=O)/C=C\C(=O)O)c3)nc2c1,-21,·,·,104
COc1ccc(CCN(Cc2ccccn2)S(=O)(=O)c2ccc(C(C)(C)C)cc2)cc1OC,·,97,74,104
O=C1NC(=Nc2ccccc2)CS1,·,87,61,98
CC(=O)Nc1ccc(S(=O)(=O)N2CCN(C(=O)N3CCCC3)CC2)cc1,-4,102,89,96
c1ccc(N2CCN(c3ncnc4c3oc3ccccc34)CC2)cc1,-6&-24,107,101,98&99
COc1ccc(CCNC(=O)Cn2c(=O)n(-c3cc(OC)c(OC)c(OC)c3)c(=O)c3ccccc32)cc1OC,-5,98,90,105
CN(C)c1ccc(/C=N/NC(=O)NC23CC4CC(CC(C4)C2)C3)cc1,-9,93,92,107
COc1ccc(OC)c(NC2=NS(=O)(=O)C(c3ccc(C)cc3)=C2C)c1,-31,·,·,97
CCOc1ccc(-c2c(C)nn3c(C)c(C(=O)NCCc4ccc(C)cc4)cnc23)cc1OCC,·,105,89,104
CCc1cccc(C)c1NC(=O)CSc1nc(=O)[nH]nc1C,-21,·,·,97
COc1ccc(NC(=O)COC(=O)c2oc3ccc(Br)cc3c2C)cc1OC,-32,88,92,·
O=c1[nH]c2ccccc2c(O)c1C=NCc1ccccc1,-6,94,89,102
CCC(C)Nc1nc(OCC(F)(F)F)nc(OCC(F)(F)F)n1 (configuration not stated),-15,·,·,100
Cc1cc(N2CCCC2)n2ncc(-c3ccc(F)cc3)c2n1,5,·,·,101
O=C(NCCCN1CCN(c2ccccc2F)CC1)C1CCCN(c2nc3cccnc3s2)C1 (configuration not stated),-9,·,·,101
Cc1noc(C)c1C(=O)Sc1ccc(C(F)(F)F)cn1,3,52,44,110
O=C(CCS(=O)(=O)c1cccs1)Nc1ccc(C(=O)Nc2ccccc2F)cc1,-9,94,96,111
O=C(CSc1ncccc1C(=O)Oc1ccccc1Cl)Nc1ccccc1Cl,·,92,93,102
CC(=O)NC(NC(C)=O)C(C)(C)Cc1ccccc1,10,109,102,103
CC(C)(C)c1ccc(-c2nc(N)nc(N)n2)cc1,-5,96,86,98
CCN(C(=O)Cn1c(=O)oc2cc(Cl)ccc21)c1cccc(C(F)(F)F)c1,-23,110,82,102
CC(C)CCNC(=O)c1ccc2c(c1)NC(=O)C(CS(=O)(=O)Cc1ccc(F)cc1)N2 (configuration not stated),·,100,84,120
CN(CC(=O)O)S(=O)(=O)/C=C/c1ccccc1,-10,82,88,·
COc1ccc(N2CCN(C(=O)c3c(C)nn(-c4ccc(F)cc4)c3-n3cccc3)CC2)cc1,·,125,96,104
CCSc1nnc2c(n1)OC(/C=C/c1ccco1)N(C(C)=O)c1ccccc1-2 (configuration not stated),-73,102,80,106

# 6 entries already listed, ordered by SMILES length, highest first.
SMILES,HCMV NEC inh,Sa growth inh,Sa growth inh second temp,GIV-Gai inh
O=C(CCS(=O)(=O)c1cccs1)Nc1ccc(C(=O)Nc2ccccc2F)cc1,-9,94,96,111
CN(C)c1ccc(/C=N/NC(=O)NC23CC4CC(CC(C4)C2)C3)cc1,-9,93,92,107
COc1ccc(NC(=O)COC(=O)c2oc3ccc(Br)cc3c2C)cc1OC,-32,88,92,·
O=C(CSc1ncccc1C(=O)Oc1ccccc1Cl)Nc1ccccc1Cl,·,92,93,102
c1ccc(N2CCN(c3ncnc4c3oc3ccccc34)CC2)cc1,-6&-24,107,101,98&99
O=c1[nH]c2ccccc2c(O)c1C=NCc1ccccc1,-6,94,89,102

# (more compounds)
SMILES,HCMV NEC inh,Sa growth inh,Sa growth inh second temp,GIV-Gai inh
CCC1CN(C(=O)N2CCC(C(=O)N3CCN(c4cccc(C)c4C)CC3)CC2)c2ccccc2O1 (configuration not stated),-20,97,93,100
CCc1ccccc1NC(=O)CSc1nnc(-c2ccccc2)c(-c2ccccc2)n1,·,116,85,100
Cc1nc(N2CCN(c3ccccn3)CC2)c2c(C)c(C(=O)N(C)Cc3ccccc3)sc2n1,-21,·,·,103
O=C(CN1C(=O)c2cccnc2Oc2ccc(Cl)cc21)NC1CCCCCC1,-12,108,92,101
O=C(Cc1csc(N2CCOCC2)n1)N/N=C1\CCCc2ccccc21,-19,95,83,·
Cn1cc(SCC(=O)Nc2ccc(F)cc2)c2ccccc21,-22,87,76,97
COc1ccc(CNc2nc(-c3ccco3)nn2S(=O)(=O)c2ccc3ccccc3c2)cc1OC,-2,114,90,102
COC(=O)c1cc2oc(C)cc2n1CC(=O)Nc1ccc(C)cc1C,-31,128,94,99
O=C(NCc1ccccc1)C1CCN(c2nnc(-n3cccc3)s2)CC1,-18,102,92,105&97
O=C(Cc1csc(-c2ccccc2)n1)N1CCN(C(=O)C2CCCO2)CC1 (configuration not stated),-44,81,78,·
COC(=O)c1sc2ccccc2c1OC(=O)c1ccccc1Cl,·,96,86,96
CN(C)/C=C1/C(=O)Nc2ccccc21,-79,107,102,100
O=C(O)CC(=O)Oc1ccc(F)cc1,-6,·,·,98
COc1cccc(NC(=O)Cn2c(=O)c3cccn3c3ccccc32)c1,·,97,60,105
O=C(C1COc2ccccc2O1)N1CCN(c2nsc3ccccc23)CC1 (configuration not stated),6,·,·,100
O=C(Cn1c(=O)oc2ccccc21)c1ccccc1,0,79,94,107
CC1C/C(=C/c2ccco2)C(C)N(C)C1 (configuration not stated),-39,90,90,·
COc1ccc(NC(=O)c2ccc(-n3nc(Sc4ccc(F)cc4)ccc3=O)cc2)cc1OC,-45,·,·,108
CCc1ccc(S(=O)(=O)Nc2cc(C(=O)O)cnc2N2CCN(c3cccc(C)c3)C(C)C2)cc1 (configuration not stated),-13,·,·,100
CCC1SC(C)C/C(=N\O)C1C (configuration not stated),19,123,94,103
CC1Cc2cc(S(=O)(=O)N(C)CC(=O)N3CCOCC3)ccc2N1C(=O)C1CC1 (configuration not stated),·,109,91,103
CSc1ccc(C=Nc2ccc(Cl)cc2Cl)s1,-10,70,108,95
COC(=O)c1ccccc1NC(=O)c1ccc(=O)n(Cc2cccc(C)c2)c1,·,92,89,97
CC(=O)N1N=C(c2cccc(I)c2)OC1c1ccncc1 (configuration not stated),-11,97,61,104
O=C(COc1ncnc2ccccc12)N1N=C2/C(=C/c3ccco3)CCCC2C1c1ccco1 (configuration not stated),-18,71,85,·

# Entries of single compounds from above.
# Profile of `O=c1[nH]c2ccccc2c(O)c1C=NCc1ccccc1` : HCMV NEC inh: -6; Sa growth inh: 94; Sa growth inh second temp: 89; GIV-Gai inh: 102
# Profile of `CCSc1nnc2c(n1)OC(/C=C/c1ccco1)N(C(C)=O)c1ccccc1-2` (configuration not stated) : HCMV NEC inh: -73; Sa growth inh: 102; Sa growth inh second temp: 80; GIV-Gai inh: 106

# (list continues)
SMILES,HCMV NEC inh,Sa growth inh,Sa growth inh second temp,GIV-Gai inh
COCCn1c(=O)c2c(nc3n2CCCN3c2ccccc2)n(C)c1=O,-20,·,·,100
COc1cc(/C=N/NC(=O)CCN2CCCCC2)cc(OC)c1OC,-15,100,93,·
CCn1c(=O)n(CC)c2cc(NC(=O)Nc3cc(C)cc(C)c3)ccc21,-6,·,·,108
Cc1ccc2c(CNCCc3ccco3)c(C(=O)O)n(Cc3ccc(F)cc3)c2c1,·,114,87,127
O=C(O)CC1C(=O)OCN1C(=O)OCc1ccccc1 (configuration not stated),·,93,91,99
CC(C)n1c2ccccc2c2nnc(SCCCC(=O)c3ccc(F)cc3)nc21,·,79,84,104
CCc1ccc(NC(=O)Cn2ncn3nc(-c4ccc(OC)cc4)cc3c2=O)cc1,4,97,89,104
COc1cccc(-c2nc(SCC(=O)N3CCc4ccccc43)c3c(=O)n(C)c(=O)n(C)c3n2)c1,·,101,100,101
c1ccc(-c2noc(-c3cccnc3N3CCN(c4ccc5c(c4)OCO5)CC3)n2)cc1,-27,·,·,102
O=C(CC(=O)Nc1ccccc1Cl)Nc1ccccc1Cl,9,·,·,96
COc1ccccc1NC(=O)Cc1c(C(=O)O)[nH]c2ccc(Cl)cc12,·,117,98,99
CCOC(=O)c1cnn(-c2ccccc2)c1NC(=O)c1ccccc1F,·,89,69,105
CCOC(=O)C1=C(N)OC2=C(C(=O)CC(c3ccccc3)C2)C1c1ccc(C)cc1 (configuration not stated),-15,·,·,109
O=C(Cc1cccs1)Nn1c(Cc2cccs2)nc2ccccc2c1=O,-5,112,71,102
Nc1nnc(-c2ccccc2SCc2ccc(F)cc2)s1,1,95,93,112
CC(Sc1nnc(C(F)(F)F)n1C)C(=O)Nc1ccc(N2CCOCC2)cc1 (configuration not stated),14,94,95,·
Cc1cccc(NC(=O)c2ccc3snnc3c2)c1C,-19,102,91,110
COc1ccccc1NC(=O)c1cc2c([nH]c1=O)CCCC2=O,-67,·,·,109
CCOC(=O)Cc1ccc(NC(=O)N2CC(C)Oc3ccc(Cl)cc32)cc1 (configuration not stated),1,93,110,100
CCc1ccc(NC(=O)c2cc3c(=O)n(Cc4ccco4)ccc3nc2C)cc1,-27,100,85,101
NCC(=O)CCC(=O)O,-35&-18&-26,97,88,·
Cc1c(-c2csc(CS(=O)(=O)C(C)(C)C)n2)sc2ccccc12,2,104,96,110
Nn1c(SCCC(=O)O)nnc1-c1ccccc1,-16,86,83,101
Cc1cc(C)c2c(CC(=O)Nc3nc(C)c(C(=O)OCC(C)C)s3)coc2c1,·,90,87,99
CC(=O)NCCC(=O)N1CCN(c2cccc(C)c2C)CC1,-2,96,94,·
# Next part
SMILES,HCMV NEC inh,Sa growth inh,Sa growth inh second temp,GIV-Gai inh
CCc1ccc(NC(=O)C2CC(=O)n3c(nc4ccccc43)N2)cc1 (configuration not stated),·,83,84,98
COc1ccc(CCNC(=O)c2ccc3c(c2)c(C)c(C)n3Cc2ccccc2)c(OC)c1OC,·,119,86,108
CCOc1cccc(N2C(=O)NC(=O)/C(=C\c3ccc(OC(C)C(=O)O)cc3)C2=O)c1 (configuration not stated),-2,·,·,104
COc1ccc(N2CCN(C(=O)Nc3cn(CC(C)C)c(=O)c4ccccc34)CC2)cc1,·,102,87,106
CCOC(=O)C1CCN(C(=O)Cc2cccc3ccccc23)CC1,-6,109,91,102
COc1cccc(NC(=O)CCc2nc(-c3cccs3)no2)c1,-15,107,78,101
COC(=O)CSc1nc2sc3c(c2c(=O)n1-c1ccccc1)CCCCC3,16,·,·,91
Cc1csc(-c2coc3cc(OCC4OC(CO)C(O)C(O)C4O)ccc3c2=O)n1 (configuration not stated),-14,·,·,105
CCOC(=O)c1c(C)n(CC)c2ccc(OC(=O)c3ccc(Cl)cc3)cc12,-4,·,·,97
CSc1nnc(NC(=O)c2cccc3ccccc23)s1,-20,90,85,102
CCOC(=O)c1c(NC(=O)c2cc(-c3ccc(Cl)cc3)on2)sc2c1CCCC2,-5,101,91,104
Cc1cc2oc(C(=O)Nc3nc(-c4ccccc4)ns3)c(C)c2cc1Cl,4,104,84,98
c1ccc(Nc2nc(Nc3ccccc3)nc(Oc3ccccc3)n2)cc1,-8,123,83,·

# Source: PubChem BioAssay
